Cruzain noTriton: blocks cruzain activity in detergent-free assay; P25779; purified cruzain, Z-FR-AMC fluorescence, no detergent; Potency, µM, inactives show max response, negative = inhibition, usual class: inhibitors; hit rate 2.3% among 200,000; AID 1476; active = well fitted curve in the direction sought with a large enough effect; inconclusive = small, poorly fitted or top-dose-only effect, or another doubt; inactive = no such curve, though single readings can be large; an effect the other way counts as inactive or inconclusive;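 note: plate controls were enzyme without inhibitor for no effect and buffer without enzyme for full effect; nearly all actives have a fitted effect of over 40% in size; top concentration of the series not given in the record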
Target sequence (P25779 123-467 limits assumed): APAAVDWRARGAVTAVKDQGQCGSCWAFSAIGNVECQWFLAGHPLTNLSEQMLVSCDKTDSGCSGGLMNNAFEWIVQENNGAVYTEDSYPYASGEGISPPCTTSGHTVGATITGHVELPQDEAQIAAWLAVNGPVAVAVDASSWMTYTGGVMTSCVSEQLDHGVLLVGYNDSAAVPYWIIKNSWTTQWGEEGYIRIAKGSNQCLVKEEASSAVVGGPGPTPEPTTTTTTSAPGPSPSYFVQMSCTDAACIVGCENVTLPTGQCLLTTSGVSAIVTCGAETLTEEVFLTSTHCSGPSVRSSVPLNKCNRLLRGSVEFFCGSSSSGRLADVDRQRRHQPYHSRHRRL
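Purified cruzain at 1.5 nM, pre-incubated 15 min with compound at room temperature in 100 mM sodium acetate pH 5.5, 5 mM DTT, 0.00005% Triton X-100. Reaction started with 2 uM Z-FR-AMC; AMC fluorescence increase over 60 s gives rate.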
MARV entry inh: Marburg virus entry inhibition; hit rate 1.8% among 300,000; AID 540276; Potency, µM (highest dose often 37.8 µM), inactives show at the top dose activity change, negative = inhibition, hits mostly inhibitors; Marburg virus pseudotyped entry inhibition, cell reporter; control for the full effect not named in the record; about a third of the inactives were read at about 46 µM; active = well fitted inhibition curve with a large enough effect; inconclusive = small, poorly fitted or top-dose-only effect, or effect the other way; inactive = flat fitted curve, though single readings scatter; tested in HEK293 cells; about a fifth of its hits are not listed in these tables; note: % is set by controls: 0 for no effect and ±100 for the full control effect; luciferase read-out
Cruzain inh Det: inhibitors of Trypanosoma cruzi cruzain with detergent; Potency, µM, for inactives: max response, negative = inhibition, hits mostly inhibitors; purified cruzain, Z-FR-AMC fluorescence, 0.01% Triton; hit rate 0.43% among 200,000; P25779; active = well fitted curve in the direction sought with a large enough effect; inconclusive = small, poorly fitted or top-dose-only effect, or another doubt; inactive = no such curve, though single readings can be large; an effect the other way counts as inactive or inconclusive;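 note: plate controls were neutral wells for no effect and buffer without enzyme for full effect; nearly all actives have a fitted effect of over 40% in size; top concentration of the series not given in the record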
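Cysteine protease activity tested under reducing, mildly acidic conditions (100 mM sodium acetate pH 5.5, 5 mM DTT) plus 0.01% Triton X-100. Cruzain 1.5 nM; substrate Z-FR-AMC 2 uM; 15 min compound preincubation at room temperature.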
SARS PLpro yeast: inhibitors of SARS-CoV papain-like protease in yeast | S. cerevisiae expressing SARS-CoV PLpro, growth rescue; control for the full effect not named in the record | Potency, µM (highest dose often 32.9 µM), without a hit: top-dose activity, positive = growth rescue | hit rate 0.19% among 330,000 | AID 485353; note: 0% is about no effect; nearly all actives have a fitted effect of over 55% in size; growth read by luminescence after 48 h
LASV entry inh: Lassa virus entry inhibition. Lassa virus pseudotype entry inhibition, cell reporter; control for the full effect not named in the record. Potency, µM (titrated, usually from 37.9 µM), for inactives: at the top dose activity change, negative = inhibition, actives largely listed as inhibitors. hit rate 1.2% among 300,000; active means well fitted inhibition curve with a large enough effect; inconclusive means small, poorly fitted or top-dose-only effect, or effect the other way; inactive means flat fitted curve, though single readings scatter; tested in HEK293 cells; note: % is set by controls: 0 for no effect and ±100 for the full control effect; nearly all actives have a fitted effect of over 50% in size; luciferase read-out
NS1 function inh: inhibitors of influenza NS1 protein function | hit rate 0.4% among 270,000 | Potency, µM (highest dose often 46.1 µM), for inactives: at the top dose activity, positive = more growth | S. cerevisiae slowed by influenza A NS1, growth recovery by OD600; note: actives are rising curves; nearly all actives have a fitted effect of over 50% in size
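Read-out: OD600 growth recovery of NS1-expressing budding yeast. Cells grown overnight at 30C in -URA glucose medium, washed, resuspended and diluted 1:100 in 2% galactose assay medium, pH 6.0. Same strain lacking NS1 served as positive control.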
2A StopGo: lowers the luciferase signal of an FMDV 2A StopGo reporter | human cells with a luciferase reporter of 2A StopGo recoding; control for the full effect not named in the record | AID 1159524 | Potency, µM (highest dose often 57.9 µM), for inactives: top-dose signal change, negative = less light | hit rate 1.2% among 410,000; active = well fitted falling curve with a large enough effect; inconclusive = small, poorly fitted or top-dose-only effect; inactive = no such curve, though single readings can be large or run the other way; tested in HEK293T cells; note: % is set by controls: 0 for no effect and ±100 for the full control effect; nearly all actives have a fitted effect of over 45% in size; luciferase light after 4 h
RE007 growth inh: less growth of the S. pombe RE007 Vpr strain. Potency, µM (series often up to 92.2 µM), without a hit: top-dose activity change, negative = less growth. S. pombe RE007 Vpr strain, BacTiter-Glo ATP luminescence, 24 h; control for the full effect not named in the record. hit rate 0.21% among 360,000. AID 651644; active = well fitted falling curve with a large enough effect; inconclusive = small, poorly fitted or top-dose-only effect; inactive = no such curve, though single readings can be large or run the other way;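 note: % is set by controls: 0 for no effect and ±100 for the full control effect; nearly all actives have a fitted effect of over 50% in size; the assay follows cell death caused by Vpr and the record does not say whether a fall means rescue or toxicity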
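Fission yeast RE007 carrying one integrated HIV-1 vpr copy, seeded at OD 0.01 in PMG+AL medium with 23 nL pinned compound. Grown 24 h at 30 degrees; viability read by BacTiter-Glo luminescence after 5 min.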
Numbers without * were called inactive; ? = inconclusive; . = not tested or not shown; [ ] = another dose, or the depositor's remark. Unless noted, calls come from the whole dose curve; as a rule, active means well fitted rising curve with a large enough effect; inconclusive means small, poorly fitted or top-dose-only effect; inactive means no such curve, though single readings can be large or run the other way. Potency is the fitted concentration of half-maximal effect. Rows were taken by chance. About 4.6% of those tested had a hit in this group.

SMILES	Cruzain noTriton	MARV entry inh	Cruzain inh Det	SARS PLpro yeast	LASV entry inh	NS1 function inh	2A StopGo	RE007 growth inh
O=C(NCCCc1ccc(F)cc1)C1CCC(=O)N(CCCN2CCCC2=O)C1 (stereo not drawn)	.	.	.	3%	.	0%	4%	-15%
CCOc1ccccc1N1CC(O)=C(c2nc3ccccc3s2)C1=N	?	5.8µM*	-7.3%	-6%	?	?	.	-3%
O=c1[nH]sc2ccccc12	.	?	.	-22%	-15%	.	-11%	?
CC(=O)Nc1ccc(S(=O)(=O)n2cnc3ccccc32)cc1	8%	-2%	1.7%	-9%	-3%	3%	-13%	-3%
CCc1ccc(S(=O)(=O)Nc2cc3c(C(=O)OCc4ccccc4)c(C)oc3c3ccccc23)cc1	?	6%[46.1 µM]	0.0%	.	21%[46.1 µM]	.	7%	.
CCc1ccc(CNC(=O)Cn2c(-c3cccs3)cc3cc(F)ccc32)cc1	5%	?	3.3%	.	-21%[46.1 µM]	.	-1%	.
CCCCNC(=O)c1ccc2c(c1)N(C)C(=O)c1ccccc1S2	.	.	.	0%	.	-4%	11%	-7%
Cc1ccc(C)c(OCCC(=O)OCC(=O)NCc2ccccc2)c1	.	6%[46.1 µM]	.	-1%	-5%	.	-7%	10%
Cc1nn(CCC(=O)O)c2nc(-c3cccnc3)cc(C(F)(F)F)c12	?	1%	-2.6%	1%	5%	1%	-14%	0%
COc1cc(/C=C/C(=O)OCC(=O)NCCc2ccccc2)cc(OC)c1OC	.	-6%[46.1 µM]	.	2%	.	.	-7%	-11%
CN1CCCN(C(=O)COc2ccccc2Br)CC1	.	.	.	10%	.	8%	-10%	-10%
CC(=O)Nc1ccc(N/C=C/C(=O)c2ccc(Cl)cc2)cc1	.	18%	.	7%	1%	23%	31%[activator]	2%
COc1ccc(O)c(CN2CCN(CCc3ccccc3)C(CCO)C2)c1 (stereo not drawn)	.	?	.	-2%	?	-3%	-18%	-15%
CCCOc1ccccc1/C=C(\C#N)C(=O)Nc1cccc(C)n1	.	4%	.	-3%	4%	-8%	48%[activator]	-21%
COc1ccc(-c2nc(CS(=O)(=O)CC(=O)NCc3ccc4c(c3)OCO4)c(C)o2)cc1	.	.	.	1%	.	5%	-9%	5%
COc1ccc(C(=O)N=C2SC3CS(=O)(=O)CC3N2Cc2ccc(F)cc2)cc1 (stereo not drawn)	.	.	.	-2%	.	-6%	-9%	-1%
CCOC(=O)c1ccc(S(=O)(=O)NCC(c2ccc(N(C)C)cc2)c2c[nH]c3ccccc23)cc1 (stereo not drawn)	?	-3%	-4.3%	-19%	2%	8.9µM*	47%[activator]	-17%
Clc1ccc(OCc2nnc3n2CCCCC3)c(Cl)c1	.	.	.	0%	.	1%	32%[activator]	0%
COc1ccc2[nH]cc(C(=O)CN3CCN(C4CCCCC4)CC3)c2c1	-8%	-7%	2.7%	0%	-3%	6%	9%	1%
O=C(CNC(=S)N(Cc1ccccc1)Cc1cccnc1)NCCN1CCOCC1	.	21%[46.1 µM]	.	1%	3%	.	1%	5%

Exported with bars between the fields: entries from further up.
molecule | Cruzain noTriton | MARV entry inh | Cruzain inh Det | SARS PLpro yeast | LASV entry inh | NS1 function inh | 2A StopGo | RE007 growth inh
CC(=O)Nc1ccc(S(=O)(=O)n2cnc3ccccc32)cc1 | 8% | -2% | 1.7% | -9% | -3% | 3% | -13% | -3%
CCc1ccc(S(=O)(=O)Nc2cc3c(C(=O)OCc4ccccc4)c(C)oc3c3ccccc23)cc1 | ? | 6%[46.1 µM] | 0.0% | . | 21%[46.1 µM] | . | 7% | .
CCc1ccc(CNC(=O)Cn2c(-c3cccs3)cc3cc(F)ccc32)cc1 | 5% | ? | 3.3% | . | -21%[46.1 µM] | . | -1% | .
CCCCNC(=O)c1ccc2c(c1)N(C)C(=O)c1ccccc1S2 | . | . | . | 0% | . | -4% | 11% | -7%

Going on with the list:
SMILES	Cruzain noTriton	MARV entry inh	Cruzain inh Det	SARS PLpro yeast	LASV entry inh	NS1 function inh	2A StopGo	RE007 growth inh
CC1=CC(C)C(/C=N/n2cnnc2)C(C)C1 (stereo not drawn)	10%	26%	-3.0%	3%	7%	-7%	-14%	10%
COc1ccc(S(=O)(=O)NNC(=O)c2csc(-n3nc(C)cc3C(F)(F)F)n2)cc1OC	?	-16%	2.6%	3%	-5%	?	16%	0%
COC(=O)c1ccc(C)c(N(CCO)CCO)c1	-12%	11%	5.8%	-2%	1%	-2%	-2%	3%
CCOc1ccc(NC(=S)Nc2cccnc2)cc1	.	4%[46.1 µM]	.	12%	-12%	.	20%	21%
COc1ccc(Cn2c(CO)cnc2SCC(=O)Nc2ccc3c(c2)OCCO3)cc1	-3%	.	-2.3%	.	-1%[46.1 µM]	.	42%[activator]	.
CCCCCCNC(=O)C(=O)NCCc1ccc(Cl)cc1	.	?	.	1%	4%[46.1 µM]	1%	0%	-3%
Cc1cccc(C)c1-n1nnnc1SCC(=O)N1CCNC1=O	.	2%	.	0%	0%	.	-5%	2%
CN1C(=O)/C(=N/OC(=O)c2ccccc2)c2ccccc21	6.3µM*	1%[46.1 µM]	4.5µM*	-32%	-2%	-89%	-8%	?
CCn1c(SCC(=O)NCc2ccccc2)nnc1C(CO)NC(=O)c1ccccc1 (stereo not drawn)	.	.	.	2%	.	10%	0%	8%
CCn1c(SCC(=O)Nc2sc3c(c2C#N)CCCC3)nnc1-c1ccncc1	?	12%[46.1 µM]	-10%	-4%	-16%	4%	-8%	21%
O=C(Nc1cccnc1)c1ccc(COCC(F)(F)F)cc1	3%	6%	4.5%	-6%	?	?	39%[activator]	15%
O=C(CSc1nnc(Cc2ccccc2)n1Cc1ccccc1)NCc1ccco1	4%	-6%	-0.2%	-4%	20%	6%	-10%	-7%
COc1ccc(S(=O)(=O)Nc2ccc(O)c3ccccc23)cc1	?	0%	-15%	-29%	?	?	-17%	-23%
O=C(CN1CCN(S(=O)(=O)c2ccc(Br)s2)CC1)NC1CCCCC1	.	24%	.	.	-23%	.	-13%	2%
C/C(=N\Nc1nc(C)cc(-c2ccccc2)n1)c1ccccc1	.	?	.	-6%	?	5%	14%	-8%
N#CC1(NC(=O)COC(=O)CSc2ccc(F)cc2)CCCCC1	.	-4%	.	-11%	2%	.	-7%	5%
Cc1ccc(C)c(S(=O)(=O)NCc2ccc(C(=O)N3CCN(C)CC3)cc2)c1	-1%	0%	-1.1%	9%	1%	3%	6%	8%
CCOC(=O)N1CCC(NC(=O)CN(c2ccc(C(C)C)cc2)S(=O)(=O)c2c(C)nn(C)c2C)CC1	.	.	.	-1%	.	6%	26%	0%
CCCN1C2CCCC1CC(NC(=O)c1cccc(Cl)c1)C2 (stereo not drawn)	.	?	.	4%	-5%	8%	-14%	12%
Cc1cc(C)c(C)c(OCC(=O)N2CCN(c3ccccn3)CC2)c1	.	2%	.	-8%	-14%	-12%	-21%	-18%
O=C(Nc1cc(N2CCOCC2)ncn1)NC1(C(F)(F)F)Oc2ccc(Cl)cc2O1 (stereo not drawn)	6%	-4%	-0.1%	-5%	.	-25%	.	.
Cc1ccc2c(c1)c(C)c(C)n2CC(O)Cn1nc(C)cc1C (stereo not drawn)	?	-5%	-4.1%	2%	0%	-11%	5%	0%
Cc1cc(C)cc(NC(=O)/C(C#N)=C/c2cn(CC(=O)NCc3ccco3)c3ccccc23)c1	16µM*	?	-1.8%	8%	?	4%	?	9%
O=C(CCCOc1ccccc1)N1CCN(c2ccccc2)CC1	4%	?	-3.0%	16%	?	-48%	-26%	-11%
CC(=O)NCC(=O)OCC(=O)c1ccccc1	-4%	-11%	7.4%	-6%	3%	2%	.	0%
O=C(CSc1cccs1)Nc1ccc2ccccc2c1	-16%	-1%	-5.6%	-31%	-25%	-33%	48%[activator]	-2%
CCN(CC(=O)NCc1ccc(F)cc1)c1ccc(S(C)(=O)=O)cc1[N+](=O)[O-]	.	1%[46.1 µM]	.	-1%	22%	.	-12%	-1%
Cc1cc2oc(C(=O)Nc3cccc(-c4nc5ccccc5o4)c3)c(C)c2cc1C	0%	?	-0.7%	.	?	.	-10%	.
CCCCn1c(=O)c(C(=O)NCc2ccco2)c(O)c2ccccc21	.	-17%[46.1 µM]	.	1%	-21%[46.1 µM]	.	-11%	6%
Cc1c(NC(=O)CSc2nnc(C(C)N(C)C)n2-c2ccccc2)c(=O)n(-c2ccccc2)n1C (stereo not drawn)	.	?	.	.	-5%	.	-4%	12%
Cc1nc(NNC(=O)c2ccccc2)cc(-c2ccccc2)n1	2%	-3%	-0.1%	7%	10%	1%	34%[activator]	-3%
Cc1ccc(-n2nc3c(=O)n(CCCC(=O)NC(C)c4ccccc4)nc(C)c3c2C)cc1 (stereo not drawn)	-12%	.	-0.5%	.	-8%[46.1 µM]	.	-6%	.
CC(O)c1ccc(-n2cnnn2)cc1 (stereo not drawn)	-8%	-3%	-1.9%	7%	0%	18%	11%	1%
O=c1c2cnn(-c3ccc(F)cc3)c2ncn1Cc1ccccc1Cl	4%	?	-1.4%	.	-2%[46.1 µM]	.	-17%	.
Cc1cc(C(C)(C)C)ccc1OCC(=O)N/N=C\c1c(C)n(C)n(-c2ccccc2)c1=O	.	6%[46.1 µM]	.	1%	-12%[46.1 µM]	8%	10%	-13%
COc1ccc(-c2nc(SC(CC(=O)NCCN3CCOCC3)c3cccs3)n[nH]2)cc1 (stereo not drawn)	.	11%[46.1 µM]	.	-1%	17%	.	-1%	1%
COCCn1c(SCC(=O)Nc2cccc(C(=O)OC)c2)nc2ccccc2c1=O	?	-2%	-3.0%	3%	17%	-22%	-11%	15%
